# Source: PubChem BioAssay (Broad Institute)
# UUG fidelity – alters start codon recognition fidelity in yeast; S. cerevisiae UUG-firefly luciferase reporter, luminescence/redox ratio; activity score, % at 18.7 µM; hit rate 0.13% among 350,000;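 active means replicate mean at a twofold rise or more, about +100% in these data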;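 further: firefly luciferase made from a UUG start codon reports start codon fidelity; reporter light over untreated wells divided by growth signal over untreated wells; some hits fall short of that in this replicate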
# Active calls of the source: *. Not all compounds are listed; rates above refer to the full screens.
Structure	UUG fidelity
CCN(C[C@@H]1[C@@H](c2ccc(C3=CCCC3)cc2)[C@@H](CO)N1C(C)=O)C(C)=O	-11.1
O=C(c1cccnc1)N1C[C@H]2[C@@H](c3ccccc31)[C@H](CO)N2C(=O)Nc1ccccc1Cl	-3.7
C[C@H](CO)N1C[C@H](C)[C@@H](CN(C)Cc2ccc(Cl)c(Cl)c2)Oc2c(NC(=O)Nc3ccc(F)cc3)cccc2C1=O	8.5
C[C@H](CO)N1C[C@H](C)[C@H](CN(C)S(=O)(=O)c2cn(C)cn2)Oc2c(NC(=O)Nc3ccc4c(c3)OCO4)cccc2C1=O	-11.1
CC(=O)N1CCCCN2[C@H](CO)[C@H](c3ccc(Br)cc3)[C@@H]2C1	-4.9
C[C@@H]1CN([C@H](C)CO)C(=O)c2cccc(NC(=O)c3nc4ccccc4s3)c2O[C@H]1CN(C)C(=O)NC1CCCCC1	33.5
C[C@@H](O)C#Cc1ccc([C@H]2[C@@H](CO)N3CCCCN(S(=O)(=O)c4ccccc4)C[C@H]23)cc1	44.7
CC(C)NC(=O)N(C)C[C@H]1Oc2ccc(NS(=O)(=O)c3ccccc3)cc2C(=O)N([C@@H](C)CO)C[C@H]1C	0.3
COc1ccccc1C(=O)N1C[C@H]2[C@@H](c3ccccc31)[C@H](CO)N2Cc1ccc(F)cc1	-6.9
Cc1cccc(S(=O)(=O)N2C[C@H](O)COC[C@@H]3O[C@@H](CC(=O)NCCCN4CCOCC4)CC[C@H]32)c1	16.0
CC(=O)N(C)C[C@@H]1[C@@H](c2ccc(-c3ccc(F)cc3)cc2)[C@H](CO)N1C(C)=O	-6.3
COc1ccc(C#Cc2ccc([C@H]3[C@H](CO)N4CCCCN(C(=O)c5ccncc5)C[C@@H]34)cc2)cc1	-3.7
COCCNC(=O)C[C@@H]1C[C@@H]2c3cc(NC(=O)Nc4ccccc4)ccc3O[C@@H]2[C@H](CO)O1	-9.5
O=C(CN1CCOCC1)N1CCCCN2[C@H](C1)[C@@H](c1ccc(-c3ccccc3F)cc1)[C@@H]2CO	-15.0
COc1ccc(CN(C)C[C@@H]2Oc3ccc(NC(=O)CCC(F)(F)F)cc3C(=O)N([C@@H](C)CO)C[C@@H]2C)cc1	12.2
O=C(c1cnccn1)N1CC[C@@H]2[C@H]1c1cc(C#Cc3cccnc3)ccc1N[C@@H]2CO	-16.7
CO[C@@H]1CN(C)C(=O)c2ccc(NS(C)(=O)=O)cc2OC[C@@H](C)N(C)C[C@@H]1C	1.1
COCC(=O)N1C[C@@H](C)[C@H](OC)CN(C)C(=O)c2ccc(NC(=O)c3ccccc3)cc2OC[C@@H]1C	14.0
O=C(NC1CCCC1)N1CCCCN2[C@H](CO)[C@@H](c3ccc(-c4cncnc4)cc3)[C@H]2C1	18.3
O=C(Nc1cccc(F)c1)N1C[C@@H]2[C@H](c3ccccc31)[C@@H](CO)N2C(=O)Cc1ccccc1	-5.1
O=C(NCCN1CCCCC1)[C@H]1[C@H](CO)[C@H]2Cn3c(cccc3=O)[C@@H]1N2C(=O)C1CCCCC1	3.3
CCC(=O)N1C[C@H](C)[C@H](OC)CN(C)C(=O)c2ccc(NC(=O)Nc3ccccc3)cc2OC[C@H]1C	24.2
O=C(C[C@H]1CC[C@@H]2[C@H](COC[C@H](O)CN2Cc2ccccc2F)O1)N[C@@H]1CCN(Cc2ccccc2)C1	11.4
CN(C)C(=O)c1ccc(-c2ccc3c(c2)[C@H]2[C@H](CCN2Cc2cncnc2)[C@H](CO)N3)cc1	-12.7
CN(C)CC(=O)Nc1ccc2c(c1)[C@H]1C[C@@H](CC(=O)NCc3cccnc3)O[C@H](CO)[C@H]1O2	-17.7
COc1ccc(NC(=O)N(C)C[C@@H]2Oc3ccc(NS(=O)(=O)c4ccc(F)cc4)cc3C(=O)N([C@H](C)CO)C[C@@H]2C)cc1	25.4
COc1ccc(NC(=O)Nc2ccc3c(c2)CC(=O)N([C@H](C)CO)C[C@H](C)[C@@H](CN(C)C(=O)Nc2ccccc2)O3)cc1	-0.8
C/C=C/c1ccc([C@@H]2[C@H](CO)N[C@H]2CNC(=O)c2ccccc2F)cc1	-12.6
CO[C@@H]1CN(C)C(=O)c2ccc(NC(=O)C3CCOCC3)cc2OC[C@H](C)N(Cc2cccnc2)C[C@@H]1C	-2.8
CN(C)CC#Cc1ccc([C@@H]2[C@H](CO)N3CCCCN(C(=O)c4ccc5c(c4)OCO5)C[C@@H]23)cc1	-12.7

# Rewritten with values ahead of the structure: 11 of the compounds above.
UUG fidelity	SMILES
-5.1	O=C(Nc1cccc(F)c1)N1C[C@@H]2[C@H](c3ccccc31)[C@@H](CO)N2C(=O)Cc1ccccc1
3.3	O=C(NCCN1CCCCC1)[C@H]1[C@H](CO)[C@H]2Cn3c(cccc3=O)[C@@H]1N2C(=O)C1CCCCC1
24.2	CCC(=O)N1C[C@H](C)[C@H](OC)CN(C)C(=O)c2ccc(NC(=O)Nc3ccccc3)cc2OC[C@H]1C
11.4	O=C(C[C@H]1CC[C@@H]2[C@H](COC[C@H](O)CN2Cc2ccccc2F)O1)N[C@@H]1CCN(Cc2ccccc2)C1
-12.7	CN(C)C(=O)c1ccc(-c2ccc3c(c2)[C@H]2[C@H](CCN2Cc2cncnc2)[C@H](CO)N3)cc1
-17.7	CN(C)CC(=O)Nc1ccc2c(c1)[C@H]1C[C@@H](CC(=O)NCc3cccnc3)O[C@H](CO)[C@H]1O2
25.4	COc1ccc(NC(=O)N(C)C[C@@H]2Oc3ccc(NS(=O)(=O)c4ccc(F)cc4)cc3C(=O)N([C@H](C)CO)C[C@@H]2C)cc1
-0.8	COc1ccc(NC(=O)Nc2ccc3c(c2)CC(=O)N([C@H](C)CO)C[C@H](C)[C@@H](CN(C)C(=O)Nc2ccccc2)O3)cc1
-12.6	C/C=C/c1ccc([C@@H]2[C@H](CO)N[C@H]2CNC(=O)c2ccccc2F)cc1
-2.8	CO[C@@H]1CN(C)C(=O)c2ccc(NC(=O)C3CCOCC3)cc2OC[C@H](C)N(Cc2cccnc2)C[C@@H]1C
-12.7	CN(C)CC#Cc1ccc([C@@H]2[C@H](CO)N3CCCCN(C(=O)c4ccc5c(c4)OCO5)C[C@@H]23)cc1

# Continued:
Structure | UUG fidelity
COCC(=O)Nc1ccc2c(c1)OC[C@H](C)N(C(=O)c1cnccn1)C[C@@H](C)[C@@H](OC)CN(C)C2=O | -9.1
Cc1ccc(S(=O)(=O)N(C)C[C@@H]2Oc3ccc(NC(=O)CCN4CCOCC4)cc3C(=O)N([C@@H](C)CO)C[C@H]2C)cc1 | -5.5
CN(C)CC(=O)N1CC[C@@H]2[C@H]1c1cc(Br)ccc1N(C)[C@@H]2CO | -9.1
C/C=C/c1ccc([C@@H]2[C@@H](CN(C)S(C)(=O)=O)N(C(C)=O)[C@H]2CO)cc1 | -8.9
CCC(=O)Nc1ccc2c(c1)C(=O)N(C)C[C@H](OC)[C@@H](C)CN(Cc1ccccc1C(=O)O)[C@H](C)CO2 | 1.1
COc1ccc(CN2[C@@H]3CN(C(=O)NC(C)C)c4ccccc4[C@@H]3[C@@H]2CO)cc1 | 0.9
COc1ccccc1NC(=O)N1C[C@@H](O)COC[C@@H]2O[C@H](CC(=O)NCCc3ccccc3)CC[C@H]21 | 6.3
C/C=C/c1ccc([C@@H]2[C@@H](CO)N3CCCCN(S(=O)(=O)c4cccs4)C[C@@H]23)cc1 | 9.7
O=C(c1ccccc1)N1C[C@H]2[C@@H](c3ccccc31)[C@H](CO)N2C(=O)c1cccc(F)c1 | 18.2
CCN(C[C@@H]1[C@@H](c2ccc(-c3cccnc3)cc2)[C@@H](CO)N1C(C)=O)C(C)=O | -12.1
COc1cccc(C(=O)Nc2ccc3c(c2)OC[C@@H](C)N(CC2CC2)C[C@H](C)[C@H](OC)CN(C)C3=O)c1 | -5.5
C[C@H](NC(=O)C[C@H]1CC[C@@H]2[C@H](COC[C@@H](O)CN2C(=O)Nc2ccccc2)O1)c1ccccc1 | -4.9
CC(C)NC(=O)N(C)C[C@@H]1Oc2ccc(NC(=O)Nc3ccc4c(c3)OCO4)cc2C(=O)N([C@@H](C)CO)C[C@H]1C | -9.5
COCC#Cc1ccc([C@H]2[C@@H](CO)N3CCCCN(C(=O)CN(C)C)C[C@H]23)cc1 | 10.9
C[C@H]1CN([C@@H](C)CO)C(=O)c2cc(N(C)C)ccc2O[C@H]1CN(C)S(=O)(=O)c1ccc(Cl)cc1 | 5.1
CC(=O)NC[C@@H]1[C@H](c2ccc(-c3ccccc3)cc2)[C@H](CO)N1C(=O)C1CC1 | -0.9
COC(=O)C[C@@H]1CC[C@@H]2[C@@H](COc3ccc(NC(=O)c4cnccn4)cc3C(=O)N2C)O1 | -5.2
C[C@H](CO)N1C[C@H](C)[C@@H](CN(C)CC2CCCCC2)Oc2ccc(NC(=O)Nc3cccc4ccccc34)cc2C1=O | 2.7
Cc1ccc(OC(=O)N(C)C[C@@H]2OCc3ccccc3-c3ccccc3C(=O)N([C@@H](C)CO)C[C@@H]2C)cc1 | 3.4
CN1c2ccc(C#Cc3cccnc3)cc2[C@@H]2[C@@H](CCN2C(=O)CN2CCOCC2)[C@H]1CO | -5.2
COc1ccccc1-c1ccc([C@H]2[C@H]3CN(Cc4ccncc4)CCCCN3[C@H]2CO)cc1 | -7.3
COc1ccccc1S(=O)(=O)N1CC[C@@H]2[C@@H](CO)N(C)c3ccc(-c4ccc(C#N)cc4)cc3[C@@H]21 | -11.5
O=S(=O)(c1ccccc1F)N1CC[C@H]2[C@H](CO)Nc3ccc(-c4ccc(F)cc4)cc3[C@H]21 | -20.7
C/C=C/c1ccc([C@H]2[C@H](CO)N(c3nc(CC)cs3)[C@H]2CNC(C)C)cc1 | 1.9
CO[C@H]1CN(C)C(=O)c2cc(NC(C)=O)ccc2OC[C@@H](C)N(C(=O)C2CCCCC2)C[C@@H]1C | 7.0
C[C@H]1CN([C@@H](C)CO)C(=O)c2cc(NC(=O)C3CCCCC3)ccc2O[C@H]1CN(C)Cc1ccc2c(c1)OCO2 | -37.3
CO[C@@H]1CN(C)C(=O)c2ccc(NC(C)=O)cc2OC[C@@H](C)N(Cc2ccc(F)cc2)C[C@H]1C | 9.3
CC(C)NC(=O)Nc1ccc2c(c1)CC(=O)N([C@@H](C)CO)C[C@@H](C)[C@@H](CN(C)C(=O)Nc1ccc(C(F)(F)F)cc1)O2 | -7.9
C[C@H](CO)N1C[C@H](C)[C@@H](CN(C)C(=O)Nc2ccc(F)cc2)Oc2ccc(NC(=O)c3ccncc3)cc2C1=O | -1.2
C[C@H]1CN([C@@H](C)CO)C(=O)c2cc(NC(=O)Nc3ccc(C(F)(F)F)cc3)ccc2O[C@@H]1CN(C)Cc1ccc(Cl)c(Cl)c1 | -5.7
CCC(=O)N(C)C[C@H]1[C@@H](c2ccc(-c3ccccc3F)cc2)[C@@H](CO)N1C(C)=O | -9.1
C[C@H](CO)N1C[C@H](C)[C@H](CN(C)C(=O)Nc2ccc(F)cc2)Oc2ccc(NC(=O)CCC(F)(F)F)cc2CC1=O | 12.6
CO[C@H]1CN(C)C(=O)c2ccc(NC(=O)c3ccccc3)cc2OC[C@H](C)N(C(C)=O)C[C@@H]1C | 15.5
COc1cccc(C(=O)Nc2ccc3c(c2)C(=O)N(C)[C@@H]2CC[C@@H](CC(=O)N[C@H](C)c4ccccc4)O[C@H]2CO3)c1 | 2.1
C[C@H](CO)N1C[C@H](C)[C@H](CN(C)Cc2ccc(C(=O)O)cc2)Oc2ccc(NC(=O)CCC(F)(F)F)cc2C1=O | -9.0
C[C@@H]1CN([C@@H](C)CO)C(=O)c2cc(NC(=O)Nc3ccccc3)ccc2O[C@@H]1CN(C)Cc1ccc(C(=O)O)cc1 | -0.9
O=C(c1ccccc1F)N1CC[C@H]2[C@H](CO)Nc3ccc(-c4ccc(F)cc4)cc3[C@H]21 | -4.6
O=C(C[C@H]1CC[C@H]2[C@@H](COC[C@@H](O)CN2C(=O)c2ccccc2F)O1)N1CCN(c2ccccc2)CC1 | 10.5
C[C@H](CO)N1C[C@H](C)[C@H](CN(C)C(=O)Nc2cccc3ccccc23)Oc2ccc(NC(=O)Cn3cnnn3)cc2C1=O | -0.2
CCCNC(=O)C[C@H]1CC[C@H]2[C@@H](COC[C@@H](O)CN2C(=O)Nc2ccccc2OC)O1 | -6.1
CC(=O)N1[C@@H](CO)[C@@H]2c3ccccc3N(S(=O)(=O)c3ccccc3F)C[C@@H]21 | -12.2
C/C=C/c1ccc([C@@H]2[C@H](CO)N3CCCCN(S(=O)(=O)c4cccs4)C[C@@H]23)cc1 | 2.6
CCNC(=O)C[C@H]1CC[C@H]2[C@@H](COC[C@H](O)CN2C(=O)CC)O1 | -14.3
COCC(=O)N1C[C@H]2[C@@H](c3ccccc31)[C@@H](CO)N2Cc1ccc(OC)cc1 | -2.4
Cc1cc(C(=O)Nc2cccc3c2O[C@@H](CN(C)Cc2ccc(-c4ccccc4)cc2)[C@@H](C)CN([C@H](C)CO)C3=O)n(C)n1 | 0.2
Cc1noc(C)c1NC(=O)Nc1ccc2c(c1)C(=O)N([C@@H](C)CO)C[C@@H](C)[C@@H](CN(C)S(C)(=O)=O)O2 | 2.5
O=C(Nc1ccccc1)[C@H]1[C@H](CO)[C@H]2Cn3c(ccc(C4=CCCC4)c3=O)[C@H]2N1Cc1cocn1 | -8.3
O=C(C[C@H]1CC[C@@H]2[C@H](COC[C@@H](O)CN2C(=O)C2CCCC2)O1)NCc1ccncc1 | 0.9
CS(=O)(=O)N1CCCCN2[C@H](CO)[C@@H](c3ccc(-c4cccc(C#N)c4)cc3)[C@H]2C1 | -12.0
COCC(=O)N1C[C@H]2[C@@H](c3ccccc31)[C@@H](CO)N2Cc1ccccc1 | -5.1
C/C=C/c1ccc([C@@H]2[C@@H](CN(CC)C(C)=O)N(Cc3cccnc3)[C@H]2CO)cc1 | -12.8
COc1ccc(C#Cc2ccc([C@@H]3[C@H](CO)N4CCCCN(C(=O)Nc5cccc(F)c5)C[C@@H]34)cc2)cc1 | 3.9
CC(C)C#Cc1ccc([C@@H]2[C@@H](CO)N3CCCCN(C(=O)c4ccc5c(c4)OCO5)C[C@@H]23)cc1 | 3.8
O=C(c1ccncc1)N1CCCCN2[C@H](C1)[C@H](c1ccc(-c3ccccc3)cc1)[C@@H]2CO | -4.3
COc1cccc(-c2ccc3c(c2)[C@@H]2[C@@H](CCN2S(=O)(=O)c2ccccc2F)[C@H](CO)N3)c1 | -26.5
